Compound activity as filed in PubChem.
BJeLR lethal = BJeLR cell viability loss; BJeLR (HRASV12) viability, CellTiter-Glo ATP luminescence, 48 h; reference of the scale not given here; inhibition, % (test concentration not listed); hit rate 0.17% among 300,000;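 active means replicate mean above 50%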;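 further: 50 nL library stock added to about 25 µL; numbers are from one replicate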
RN4220 kill = S. aureus RN4220 growth inhibition | OD600, 16 h | inhibition, % (no concentration beside the values) | hit rate 0.33% among 330,000;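 active means z-score of -3 or lower and OD600 up to 0.18 on both plates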;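 further: plate controls were untreated cells for no effect and reference antibiotic for full effect; stock transfer was 100 nL into about 80 µL; one replicate is shown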
Mtb hypoxia rep = Mtb hypoxia fluorescent reporter inhibition | M. tuberculosis hypoxia-regulated fluorescent reporter, fluorescence | fluorescence inhibition, % (no concentration beside the values) | hit rate 0.1% among 300,000;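 active means 35 to 45% if threefold the growth effect, above 45% if 1.5-fold the growth effect; inactive means the rest, general growth blockers included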;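 further: wells of about 50 µL received 100 nL stock; 0% = vehicle wells and 100% = reference inhibitor wells; whole bacteria with a GFP reporter of the hypoxia response; strong numbers were not always called active; many hits fall short of the cut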
Autofluor counter = flagged as autofluorescent in microsphere protease counterscreen; compound autofluorescence counterscreen, microsphere flow cytometry; active compounds read high; fluorescence intensity (concentration not given with the values); hit rate 3.1% among 360,000; AID 624483;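 active means at least 3 SD above the mean of all compounds, about 16000 in these data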;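 further: 100 nL of 1 mM stock went into each well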
PrP 5UTR inh = suppresses PrP 5' UTR mRNA reporter expression; cell-based PrP 5' UTR mRNA reporter, plate reader; inhibition, % (concentration not given with the values); hit rate 0.35% among 340,000; AID 488862;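 active means every replicate at 50% or more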;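 further: 0 = median of the neutral control wells; tested in H4 reporter cells; numbers are from one replicate; inactives centre near -14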
Sa ugtP lethal = compounds lethal to S. aureus RN4220 ugtP deletion mutant; hit rate 0.54% among 330,000; OD600 growth, 16 h; some inactives read as strong as hits; growth inhibition, % (concentration not given with the values); AID 1259309;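 active means z-score under -3 and OD600 up to 0.15 on both plates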;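 further: plate controls were untreated wells for no effect and antibiotic for full effect; wells of about 80 µL received 100 nL stock; the first replicate is given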
Mtb hypoxia rep growth = second read-out of Mtb hypoxia rep, no call of its own (marks repeat the call); growth inhibition, %; measured here: M. tuberculosis growth (absorbance);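 0% = vehicle and 100% = reference antibiotic; read after six days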
* hit, by the source's call; · = no result given.

No.	Molecule	BJeLR lethal	RN4220 kill	Mtb hypoxia rep	Mtb hypoxia rep growth	Autofluor counter	PrP 5UTR inh	Sa ugtP lethal
1	CCCCN1C(=O)C(=O)N(CC(=O)Nc2cc(OCC)c(N3CCOCC3)cc2OCC)C1=O	12	3.5	5	6	3216	-24	-2
2	O=C(CSc1nnc(COc2ccccc2)o1)Nc1ccc(F)cc1	-1	0.2	10	2	3512	-28	2
3	O=S(=O)(CCc1nnc(-c2ccccc2)o1)c1ccc2ccccc2c1	-1	3.3	13	9	2948	-15	-4
4	CCCCn1c(N)c(N(CCOC)C(=O)COC(=O)CCOc2ccc(C)cc2)c(=O)[nH]c1=O	·	2.7	7	14	3724	-20	10
5	Cc1c(N=C2N=C(NC(=O)Nc3ccc(Cl)cc3)c3ccccc32)c(=O)n(-c2ccccc2)n1C	5	-2.9	-6	13	4387	2	-14
6	O=C(COc1ccc(Cl)cc1)Nc1nc(-c2ccc(S(=O)(=O)N3CCOCC3)cc2)cs1	1	-4.4	-2	-2	22761*	-20	-15
7	O=C(CN1C(=O)c2cccc3cccc(c23)C1=O)N1CCOCC1	1	4.4	-6	3	9313	-10	6
8	CCOC(=O)c1c(-c2ccccc2)csc1NC(=O)c1ccc(N2C(=O)CCC2=O)cc1	2	4.3	7	3	22792*	-17	-1
9	O=C(CNC(=O)c1ccco1)OCC(=O)c1ccc([N+](=O)[O-])cc1	3	1.4	13	-2	4491	-1	1
10	Nc1ccccc1C(=O)NCc1ccccc1	2	2.4	·	·	2400	-13	2
11	COc1ccccc1NS(=O)(=O)c1ccc(C(=O)NCc2ccc(S(N)(=O)=O)cc2)cc1	·	-2.9	8	11	4093	-24	-6
12	CCOC(CNC(=O)c1cccc([N+](=O)[O-])c1)OCC	4	1.5	2	5	3738	-22	2
13	Cc1ccc(-n2nc3c(=S)[nH]nc(C)c3c2C)cc1	15	-2.4	13	14	3479	-11	1
14	Cc1cccc(CCNC(=O)CC2C(=O)NCCN2Cc2ccc(F)c(F)c2)n1 (stereo not drawn)	·	7.5	3	-3	4738	1	2
15	CCOc1ccc(CNC(=O)CCS(=O)(=O)Cc2cccc(Cl)c2)cc1OC	16	-2.4	13	1	5927	1	4
16	COc1cc(OC)c2c(-c3ccccc3)cc(=O)oc2c1C(CC(=O)N1CCOCC1)c1ccc(N(C)C)cc1 (stereo not drawn)	-12	2.0	21	13	3267	6	1
17	CNC(=S)N1CCn2cccc2C1c1ccc(F)cc1 (stereo not drawn)	-2	0.1	-6	4	5781	-19	4
18	O=C(NCCCc1ccccc1)c1ccc(F)cc1	-10	-0.8	·	·	4096	-27	5
19	COc1cccc(CSc2nnc(-c3ccc(F)cc3)o2)c1	-1	8.0	16	6	4264	-16	9
20	Cc1ccc(-n2ncc3c(=O)n(CC(=O)Nc4cccc(Cl)c4)cnc32)cc1C	5	7.3	-3	3	3390	-6	-8
21	CCOc1ccccc1/C=N/NC(=O)c1nnn(-c2nonc2N)c1CN1CCCCCC1	-13	·	·	·	6200	-20	·
22	CC[C@]12c3[nH]c4cc(-c5ccco5)ccc4c3CCN1C(=O)[C@@H](CC(=O)NC(C)(C)C)C[C@@H]2C(=O)N1CCN(C(=O)C2CC2)CC1	·	2.9	-8	11	3823	-11	-3
23	Cc1nn(-c2ccccc2)c(C)c1C(=O)OCC(=O)c1c(N)n(CC(C)C)c(=O)n(C)c1=O	-3	2.1	5	18	3849	-15	-7
24	CCN1C(=O)[C@H]2[C@@H](c3ccc(C)cc3)N3C(=O)N(c4ccccc4)C(=O)[C@@]3(Cc3ccccc3)[C@H]2C1=O	-2	·	·	·	3983	-9	·
25	COc1ccc(CCNC(=O)c2cc(-c3ccccn3)nc3c(Cl)cccc23)cc1OC	33	-1.1	5	15	4384	-5	5
26	CCCC(C)C(=O)Nc1nnc(CCc2ccccc2)s1 (stereo not drawn)	1	0.3	4	-1	3352	15	-6
27	O=C(Nc1cc(Cl)ccc1O)c1cc2n(n1)C(C(F)(F)F)CC(c1ccc3c(c1)OCO3)N2 (stereo not drawn)	6	4.6	·	·	4580	-26	-39
28	CN1CCN(S(=O)(=O)c2ccc3c(c2)NC(=O)CS3)CC1	8	1.7	-3	-4	5496	-15	3
29	Cc1ccc(C(=O)c2cc3c(cc2N)OCCO3)cc1	0	-0.7	·	·	5379	10	7
30	COc1cc(/C=N/NC(=O)CNC(=O)c2ccccc2)ccc1OC(=O)c1cccs1	-3	·	·	·	4386	-12	·
31	CCC(C)(C)C(=O)O	·	4.2	1	0	3978	-9	10
32	Cc1cc(C)c(C)c(OCCN2CC(C)OC(C)C2)c1 (stereo not drawn)	3	5.6	-2	12	3591	-12	6
33	O=C(NCc1ccc(Cl)cc1)c1ccc(-n2cccn2)nc1	3	-4.8	-8	9	4567	-21	-6
34	CCCCC(=O)Nc1nnc(SCC(=O)N2CCN(c3ccccc3OC)CC2)s1	0	-1.6	2	3	3757	-8	-1
35	COc1c(Cl)cc(C(=O)Nc2ccccc2-c2ccccc2)cc1Cl	1	1.6	8	7	5575	-3	-5
36	Cc1nc2sc3c(c2c2nnc(SCC(=O)NCc4ccco4)n12)CCCC3	7	0.2	10	13	2871	-10	-19
37	O=C1c2ccsc2SCCN1Cc1cccc(Cl)c1	6	-2.8	·	·	2727	0	20
38	Cc1ccc(S(=O)(=O)Nc2ccc3c(c2)C(=O)NC3=O)cc1[N+](=O)[O-]	17	14	5	13	5489	1	1
39	CCN(CC)CCCNC(=S)N(CCO)Cc1cc2cc3c(cc2[nH]c1=O)OCCO3	-5	1.3	-1	-16	5198	-25	2
40	Cc1cccc2cc(C(c3nnnn3CC3CCCO3)N3CCCC4(CCCCC4)C3)c(=O)[nH]c12 (stereo not drawn)	·	4.7	-14	-5	·	·	1
41	Cc1cccc(C(=O)Nc2ccn(C)n2)c1	·	2.6	10	7	5417	-52	2
42	COc1ccc(Cl)cc1NC(=O)CN1CCN(S(=O)(=O)c2ccc(F)cc2)CC1	4	-1.3	11	12	3459	-15	6
43	Cc1nc(SC(C)C(=O)NC2CCCCC2C)c2c(C)c(C)sc2n1 (stereo not drawn)	10	14	7	0	5982	-3	2
44	Oc1ccc(C[C@H]2CNCCN2CCc2cccc3ccccc23)cc1	2	·	·	·	2925	-17	·
45	O=CN1CCCN(Cc2nc(Cc3ccccc3F)no2)CC1	-8	1.7	13	8	2265	-20	6
46	CN1C(=O)c2ccc(C(=O)Nc3ccc(Br)cn3)cc2C1=O	4	8.8	12	5	5451	-4	0
47	CS(=O)(=O)c1ccccc1-c1nnc(NC(=O)COc2ccc(Cl)cc2)o1	-10	5.6	8	0	·	-10	4
48	COc1ccc(C(=O)Cc2cc(OC)c(OC)cc2C(=O)c2ccccc2F)cc1OC	-17	1.5	5	4	3300	-13	12
49	COCCN(CC1CCCN(C2Cc3ccccc3C2)C1)C(=O)c1ccc(C(C)=O)cc1 (stereo not drawn)	2	0.7	-6	2	4810	7	3
50	COc1cccc(CN2CCN(c3ncccn3)CC2)c1	0	0.4	1	1	22009*	-26	-2
51	COc1ccccc1-c1coc2c(CN3CCCCC3C)c(O)ccc2c1=O (stereo not drawn)	-8	5.2	17	8	3734	-8	6
52	O=C1CSC(c2cn(-c3ccccc3)nc2-c2cc3ccccc3oc2=O)N1Cc1cccnc1 (stereo not drawn)	-11	2.6	-1	4	5423	-5	0
53	Cc1ccc(N2C(=O)CSC2c2c(F)cccc2Cl)cc1 (stereo not drawn)	8	4.0	2	10	17035*	11	2
54	COc1cc2c(cc1OC)CN(C(=O)CSc1nc3[nH]ncc3c(=O)n1-c1ccccc1)CC2	-5	5.1	7	6	·	·	10
55	COc1ccc(NC(=O)c2cc3ccccc3cc2OC)cc1OC	-4	2.7	21	3	4197	-22	3
56	CCCNC(=O)c1ccc(C2SCC(=O)N2Cc2ccccc2)cc1 (stereo not drawn)	-3	4.0	10	11	2459	-26	4
57	CCCC(=O)Nc1ccc(Cl)c(NC(=O)c2ccco2)c1	-15	0.8	17	2	7795	-9	-9
58	CS(=O)(=O)N1CCC(C(=O)Nc2ccccc2Br)CC1	-9	2.6	9	-2	3992	-10	6
59	NC(=O)C1CCN(C(=O)c2cc3ccccn3n2)CC1	6	-9.4	-1	4	6585	-19	-5
60	NNC(=O)c1cc(S(=O)(=O)N2CCOCC2)c[nH]1	·	5.3	11	0	2740	-17	9

(next part)
No.	Molecule	BJeLR lethal	RN4220 kill	Mtb hypoxia rep	Mtb hypoxia rep growth	Autofluor counter	PrP 5UTR inh	Sa ugtP lethal
61	O=C(C(Cc1ccccc1)N1C(=O)c2ccccc2C1=O)N1c2ccccc2CCc2ccccc21 (stereo not drawn)	5	·	·	·	2677	-29	·
62	CC(=O)/C(=N\Nc1cccc(Cl)c1)Sc1nnc(-c2ccccc2)n1-c1ccccc1	3	·	·	·	2457	-28	·
63	Cc1noc(NS(=O)(=O)c2ccc(NC(=O)CC(C)C)cc2)c1C	5	2.2	-4	-4	5670	-3	1
64	COc1ccc(-c2ccc(S(=O)(=O)N3CCCC3)cc2)cc1	2	7.0	14	10	4613	-57	13
65	Cn1c(=O)cc(Nc2ccccc2)c2c(=O)n(-c3ccccc3)c(=O)n(-c3ccccc3)c21	2	2.0	-9	-8	·	-15	7
66	COc1ccc2[nH]c(C)c(C(=O)CN3CCN(C(=O)c4ccco4)CC3)c2c1	-3	0.2	·	·	2961	-20	-1
67	CCOC(=O)COc1cccc2c(=O)n(CC(=O)NCc3ccccc3)ccc12	27	2.9	-2	4	4814	53	2
68	O=C(NN=C/C=C\c1ccco1)c1ccccn1	·	1.8	1	2	·	·	0
69	Cc1ccc(S(=O)(=O)N2CCCCC2)cc1NC(=O)COC(=O)Cc1c(F)cccc1Cl	-8	1.1	4	8	1998	-8	2
70	Cc1sc2nc(-c3ccc(Br)cc3)oc(=O)c2c1C	-3	6.4	12	3	3712	-32	3
71	Cc1nn(C)c(Oc2cccc(C(F)(F)F)c2)c1C=O	2	2.8	7	9	4095	-40	5
72	O=C(O)CN1C(=O)c2ccc(Oc3cccc4c3C(=O)N(CC(=O)O)C4=O)cc2C1=O	-2	2.0	10	5	11522	-26	-1
73	CC(C)C1CC(O)(C2(O)CCCCC2)ON1 (stereo not drawn)	-7	1.3	20	14	4293	-21	0
74	Nc1c(Cl)ncnc1NN=Cc1ccccn1	·	-3.1	2	1	·	·	-5
75	COc1ccc(C2C(C(C)=O)=C(O)C(=O)N2CCO)c(OC)c1 (stereo not drawn)	0	1.3	·	·	4819	-18	-7
76	Cc1ccc(N/N=C2\CCS(=O)(=O)c3sccc32)cc1	2	·	·	·	3355	-18	·
77	Oc1ccc2c3c1O[C@H]1c4oc5ccccc5c4C[C@@]4(O)[C@@H](C2)N(CC2CC2)CC[C@]314	5	·	·	·	4502	17	·
78	CSCC[C@H](NC(=O)OC(C)(C)C)C(=O)NN=Cc1cccc2nccnc12	·	1.6	18	0	·	·	5
79	COc1cc(CNC2CCCCCC2)cc(OC)c1OC	5	-1.6	6	5	22719*	-58	1
80	CN(C)CCCNS(=O)(=O)c1cc(Cl)ccc1Cl	-3	6.9	4	5	20853*	-13	3
81	O=C(NCCCN1CCCC1)C1CCN(C(=O)c2cc3sccc3n2Cc2ccc(F)cc2)CC1	-4	0.7	11	13	14104	-20	-3
82	Cc1oc(-c2ccc(Cl)cc2)nc1CN1CCC(C(=O)NCCCN2CCCC2=O)CC1	12	0.4	·	·	4416	-63	-4
83	O=C(NC1CCN(Cc2ccccc2)CC1)c1ccccc1F	-3	-0.1	3	-3	8350	-12	-1
84	Cc1cccc(C(=O)OCC(=O)c2c(N)n(CC(C)C)c(=O)n(C)c2=O)c1[N+](=O)[O-]	4	0.7	6	11	8026	-17	2
85	Cc1ccc(F)cc1NC(=O)c1ccc(NS(=O)(=O)c2ccc(Br)s2)cc1	-10	3.0	3	0	2480	-37	-5
86	C=C(C)Cn1c(=O)c2c(nc3n2CCCN3Cc2ccccc2)n(C)c1=O	-1	2.3	12	-3	4094	-16	10

By substructure, those above containing a tert-butyl group
No.	Molecule	BJeLR lethal	RN4220 kill	Mtb hypoxia rep	Mtb hypoxia rep growth	Autofluor counter	PrP 5UTR inh	Sa ugtP lethal
22	CC[C@]12c3[nH]c4cc(-c5ccco5)ccc4c3CCN1C(=O)[C@@H](CC(=O)NC(C)(C)C)C[C@@H]2C(=O)N1CCN(C(=O)C2CC2)CC1	·	2.9	-8	11	3823	-11	-3
78	CSCC[C@H](NC(=O)OC(C)(C)C)C(=O)NN=Cc1cccc2nccnc12	·	1.6	18	0	·	·	5
